Screens from PubChem BioAssay.
GLA inh pH 4.5 = inhibitors of human alpha-galactosidase A at pH 4.5; purified enzyme, 4-MU-alpha-Gal fluorescence, pH 4.5; P06280; AID 1467; activity change, negative = inhibition, % at 105 µM; 230,000 tested, under 10 active; inconclusive = small, poorly fitted or top-dose-only inhibition, or a rising curve; inactive = flat fitted curve, though single readings scatter; no compound was filed as active;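 further: 0% = full activity with enzyme and -100% = basal without enzyme; dose as in the result columns while the protocol names 77 µM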
Target sequence (P06280 whole entry, looked up): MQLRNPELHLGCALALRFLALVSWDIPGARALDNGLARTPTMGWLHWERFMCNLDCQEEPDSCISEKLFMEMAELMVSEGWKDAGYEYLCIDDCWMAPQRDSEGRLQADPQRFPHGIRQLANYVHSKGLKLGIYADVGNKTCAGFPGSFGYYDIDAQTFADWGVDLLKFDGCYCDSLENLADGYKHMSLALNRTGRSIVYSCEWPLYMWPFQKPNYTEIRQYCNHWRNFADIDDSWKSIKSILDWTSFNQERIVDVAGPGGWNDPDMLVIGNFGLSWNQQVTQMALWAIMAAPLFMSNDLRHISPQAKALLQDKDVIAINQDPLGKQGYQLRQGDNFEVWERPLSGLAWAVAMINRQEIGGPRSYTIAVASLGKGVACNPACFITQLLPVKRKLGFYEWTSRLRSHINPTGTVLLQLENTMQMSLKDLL
Rango dissoc inh = inhibitors of RanGTP-induced Rango-importin beta complex dissociation; O95149+P62826; Biochemical FRET Rango-importin beta, RanGTP-induced dissociation; Potency, µM (titrated, usually from 46.1 µM), for inactives: at the top dose activity change, negative = inhibition; hit rate 0.071% among 340,000; active means falling FRET ratio curve, often poorly fitted, with flat reads before Ran was added; inconclusive means other falling curves, or compound fluorescence or quenching; inactive means flat or rising ratio curve;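 further: potency means the concentration at half of the fitted maximal effect; % of control where 0% means no effect; nearly all actives have a fitted effect of over 45% in size; -100% = wells without RanGTP and RCC1; the record marks most hits as doubtful in a second field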
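Rango FRET biosensor (snurportin-1 IBB flanked by N-terminal EYFP and C-terminal CFP10) at 0.1 uM, with 0.25 uM importin beta in PBS, 1mM DTT, 0.02% Tween-20, 0.1% BSA. 0.6 uM Ran, 2mM GTP and 0.2 uM RCC1 were then added for 45 min at room temperature. Inhibition read as loss of FRET rise.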
miR-21 FLuc = miR-21 reporter, rising signal; Potency, µM (series often up to 38.3 µM), for the others: top-dose reporter change, positive = more light; 340,000 tested, under 10 active; HeLa miR-21 FLuc reporter, luciferase, 48 h; AID 2288; active = well fitted rising curve with a large enough effect; inconclusive = small, poorly fitted or top-dose-only effect; inactive = no such curve, though single readings can be large or run the other way;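 further: % of control where 0% means no effect; miR-21 action dims this reporter so a rising signal means less miR-21 action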
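HeLa cells endogenously expressing miR-21, stably carrying CMV-driven firefly luciferase with a downstream miR-21 binding site, 2000 cells/well. Titrations up to approximately 40 uM, 48 hours; luciferase luminescence read.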
Rango-impB inh = inhibitors of Rango-importin beta complex formation; Q14974; Rango CFP/YFP FRET sensor + importin beta, 45 min; Potency, µM (top dose mostly 92.2 µM), without a hit: at the top dose inhibition of complex formation; hit rate 0.031% among 340,000; AID 540263; active = rising FRET ratio curve, often small or poorly fitted; inconclusive = mostly compound fluorescence or quenching in the first reads; inactive = flat curves in all reads;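 further: potency means the concentration at half of the fitted maximal effect; 0% = DMSO wells and 100% = buffer wells lacking importin beta; nearly all actives have a fitted effect of over 15% in size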
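FRET biosensor Rango (snurportin 1 IBB between N-terminal EYFP and C-terminal Cerulean), 50 nM in PBS/1 mM DTT/0.02% Tween-20/0.1% BSA, preincubated 5 min RT with compound; 0.125 microM importin beta added, 45 min RT, CFP/YFP FRET ratio read.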
* = called active by the depositor; ? = inconclusive; nt = not tested or not shown; & = joins results of further samples. These rows are one share of the data, so the mix of outcomes need not match the whole.

The line under a structure holds: GLA inh pH 4.5	Rango-impB inh	miR-21 FLuc	Rango dissoc inh
CCC(C)c1ccccc1N1CC(C(=O)NCCc2ccc(OC)c(OC)c2)CC1=O (configuration not stated)
→ nt	-2.6%	nt	-1%
O=C(CC1CCCCC1)NCc1ccccc1Cl
→ nt	-1.4%	-44%	3%
O=C(NCc1ccc(OC(F)(F)F)cc1)c1cccc2c1C(=O)c1ccc(N3CCCC3)cc1S2(=O)=O
→ nt	?	nt	-16%
COc1ccc(NC(=O)C(C)N(c2ccc(C)cc2)S(C)(=O)=O)c(OC)c1 (configuration not stated)
→ -5	0.2%	-5%	9%
CCOc1ccccc1CNC(=O)c1cc2occc2n1C
→ 4	-6.9%	-14%	-2%
Cc1cc(NC(=O)COc2ccccc2)n(-c2ccccc2)n1
→ -3	0.4%	-2%	12%
CCCCOc1ccc(NC(=O)c2cc(F)c(F)cc2Cl)cc1
→ 0	-0.2%	-19%	17%
CC1CCC(NC(=O)Nc2cccs2)CC1 (configuration not stated)
→ 1	?	-40%	0%
CN(Cc1nc2c(s1)CCCC2)C(=O)CCc1nnc(-c2ccc3c(c2)OCO3)o1
→ -4	-3.8%	-11%	5%
O=C(c1ccc(S(=O)(=O)Cc2ccccc2Cl)c([N+](=O)[O-])c1)N1CCN(c2ccccn2)CC1
→ -7	0.7%	23%	8%
c1ccc(NC(=NCc2ccco2)c2ccccc2)cc1
→ -6	0.0%	0%	-2%
CCCn1c(=N)n(CC(=O)O)c2ccccc21
→ nt	-0.9%	nt	2%
Cc1ccsc1C1C(C#N)=C(N)N(N(C)C)C2=C1C(=O)CC(C)(C)C2 (configuration not stated)
→ 0	3.0%	-2%	-9%
c1ccc(Cc2nn3c(C4COc5ccccc5O4)nnc3s2)cc1 (configuration not stated)
→ -5	?	-58%	13%
O=C(COC(=O)c1cccnc1Cl)Nc1cc(S(=O)(=O)N2CCCCC2)ccc1Cl
→ -4	-0.9%	1%	5%
CC[C@H](C)[C@@H]1NC(=O)c2cc([N+](=O)[O-])cc(F)c2OCC[C@@H](C(N)=O)NC(=O)[C@H](CCCCN)NC1=O
→ 4	1.3%	-12%	3%
CCOc1ccc(/C(O)=C2/C(=O)C(=O)N(CCN(C)C)C2c2ccccc2)cc1Cl (configuration not stated)
→ 6	-2.1%	0%	-17%
CCOC(=O)c1c(NC(C)=O)sc2c(O)c(Br)cc(Br)c12
→ -7	2.0%	-8%	11%
CCC(CC)NC(=O)CN(c1ccccc1OC)S(=O)(=O)c1cccs1
→ 8	-0.7%	4%	0%
CC1(C)CC(NC(=O)c2cccc(S(=O)(=O)Nc3cccc(Cl)c3)c2)CC(C)(C)N1
→ nt	0.6%	nt	1%
c1ccc(-c2ncc(CSc3nncn3-c3ccccc3)s2)cc1
→ 5	-1.3%	-16%	-2%
C=CCOC(=O)C1=C[C@@H](c2cn(C(C)=O)c3ccccc23)C[C@@H](OCc2ccc(CO)cc2)O1
→ nt	-0.5%	nt	-10%
CCOc1cc(/C=N/n2nnnc2N)ccc1OCc1c(C)no[n+]1[O-]
→ -14	0.0%	-4%	-4%
COC(=O)c1c(NC(=O)c2ccc(Br)o2)sc(C)c1C
→ 4	2.8%	-4%	-1%
CCC(=O)c1ccc(OCCn2cncn2)cc1
→ 0	3.8%	-5%	31%
COc1cc(/C=C2/C(=N)N3OC(C)=CC3=NC2=O)ccc1OC(=O)c1ccco1
→ 1	?	2%	?
Cc1ccc(C)c(CSc2nnc([C@@H](N)C(C)C)o2)c1
→ 6	-1.0%	-10%	13%
COc1cccc(C(=O)C[n+]2ccccc2/C=N/O)c1
→ 3	0.2%	-30%	0%
Cc1c(NC(=O)c2ccccc2NS(=O)(=O)c2ccc(F)cc2)c(=O)n(-c2ccccc2)n1C
→ -1	?	0%	3%
O=C(Nc1ccc(CN2CCS(=O)(=O)CC2)cc1)c1ccc(Cl)cc1
→ 9	-3.8%	0%	20%
C[C@@H]1CC=C[C@H]2[C@H]1C(=O)N(Cc1ccccc1)[C@H]2c1ccc(-c2ccc(F)cc2)cc1F
→ -3	0.5%	8%	3%
COc1ccc(CNCCNC(=O)c2ccco2)c(OC)c1OC
→ 2	3.1%	-1%	?
CC(C)CC(=O)Nc1ccc2oc(-c3cccnc3)nc2c1
→ 8	-4.3%	-49%	-9%
O=C1NC(NS(=O)(=O)c2ccccc2)(C(F)(F)F)C(=O)N1c1ccc(F)cc1 (configuration not stated)
→ 10	6.9%	-2%&-2%	1%
CCn1c2ccccc2c2cc(C3C(C#N)=C(N)OC4=C3C(=O)CC(C)(C)C4)ccc21 (configuration not stated)
→ -4	nt	-1%	nt
CCOc1ccc(N(CC(=O)NN=C2CCN(C)CC2)S(C)(=O)=O)cc1
→ 5	-4.5%	-9%	1%
Cc1cccc(-n2c(-c3csc4ccccc34)n[nH]c2=S)c1
→ 2	-4.6%	-25%	15%
O=C(O)c1ccccc1C=NN1CCCCCC1
→ nt	?	nt	-11%
Cc1[nH][nH]c(=O)c1C(c1c(C)[nH][nH]c1=O)c1cn(Cc2cccc3ccccc23)c2ccccc12
→ -3	3.7%	3%	21%
CC(=O)N(Cc1ccccc1)c1nc(-c2ccccc2)cs1
→ -5	0.3%	-14%	3%
COc1ccc(NC(=O)C(Cl)=C(Cl)Cl)cn1
→ -7	2.0%	19%	5%
Cc1ccc(-n2c(CNC(=O)c3cccs3)nnc2SCC(=O)NO)cc1
→ 2	5.4%	-9%	-15%
COC(=O)c1sccc1NC(=O)c1cc(-c2cccc(C)c2)nc2ccccc12
→ 6	1.3%	-4%	1%
CCCCOc1ccc(/C=N/NC(=O)c2csc(C)c2C)cc1
→ -4	0.5%	-1%	38%
COc1ccc(NC(=O)COc2ccc(C)c(C)c2)cc1S(=O)(=O)N1CCCCC1
→ nt	1.4%	nt	0%
CN(Cc1ccc(Cl)cc1)C(=O)c1ccc2ccccc2n1
→ nt	1.3%	-12%	7%
CCOC(=O)c1sc(NC(=O)CSc2nc3c(cc2C#N)CCCCC3)c(C#N)c1C
→ 2	?	-11%	?
Oc1ccc(N2CCN(C(=S)NCc3ccccc3)CC2)cc1
→ 7	1.9%	17%	33%
CCCCN1C(Nc2ccccc2)=NC[C@@H]1C
→ nt	-2.1%	nt	0%
O=C(c1ccco1)N1N=C(c2ccc3nccnc3c2)CC1c1ccccc1 (configuration not stated)
→ 3	-5.0%	-28%	24%
COc1cc(/C=C2\N=C(c3ccccc3)OC2=O)ccc1OC(C)=O
→ nt	-0.2%	-1%	1%
O=C(CC1Nc2ccccc2NC1=O)Nc1ccccc1 (configuration not stated)
→ 8	?	-28%	?
CCCCC(CC(O)COCC(C)C)C(=O)NN (configuration not stated)
→ 4	3.7%	0%	-9%
CSc1nnc(-c2ccc(S(=O)(=O)N3CCCCC3)cc2)o1
→ nt	0.1%	-6%	?
CCN(C(=O)c1cc(S(=O)(=O)N2CCc3ccccc32)cn1C)c1ccccc1
→ nt	-1.4%	7%	1%
CCOc1ccc(OCC)c(NS(=O)(=O)c2cccc3nsnc23)c1
→ -6	0.0%	-4%	4%
Cc1ccccc1NC(=O)c1ccc(CN(c2ccccc2)S(=O)(=O)c2ccccc2)cc1
→ 0	2.6%	3%	-3%
Cn1c(=O)c(C(=O)NCc2ccc(Cl)cc2)c(O)c2ccccc21
→ nt	1.4%	-3%	16%
CC(C)(C)NC(=O)C(c1ccc(O)cc1)N(C(=O)CCC(=O)Nc1nccs1)c1ccc(F)cc1 (configuration not stated)
→ 0	1.0%	7%	7%
CCC(C)(C)c1ccc(OC(=O)c2cccnc2Cl)cc1
→ nt	1.4%	-41%	7%

Continuation.
The line under a structure holds: GLA inh pH 4.5	Rango-impB inh	miR-21 FLuc	Rango dissoc inh
N#CC1(NC(=O)COc2ccc3oc4ccccc4c3c2)CCCCC1
→ 3	1.1%	-3%	-7%
Cc1cc(Oc2nc3ccccn3c(=O)c2/C=C(\C#N)C(=O)NC2CCS(=O)(=O)C2)ccc1Cl (configuration not stated)
→ nt	?	1%	?
O=C(CSc1nnc(CNc2ccc(Cl)cc2)n1Cc1ccccc1)NCc1ccco1
→ -15	2.1%	2%	0%
COc1cc(OC)cc(-c2c(-c3cccs3)c3cc(-c4ccc5cc[nH]c5c4)ccc3n2C)c1
→ nt	-0.4%	nt	0%
CC1CCCN(C(=O)COc2ccc3c(c2)OCO3)C1 (configuration not stated)
→ nt	0.4%	-38%	9%
CCCCOc1ccc(Cl)cc1CSc1nncn1N
→ 1	3.8%	-9%	13%
COCCCNC(c1ccccc1)c1ccncc1 (configuration not stated)
→ -16	3.7%	0%	7%
COc1ccc(CCNCc2c(-c3ccccc3)n(C)c3ccccc23)cc1
→ nt	1.8%	23%	19%
C[C@H](CO)N1C[C@H](C)[C@@H](CN(C)S(=O)(=O)c2cccs2)Oc2ccc(NC(=O)Nc3ccccc3)cc2C1=O
→ nt	0.2%	nt	-14%
CN(C)c1nc(-c2ccccc2)cc(C(F)(F)F)c1C#N
→ -14	?	-4%	?
CC1CCN(CCCNC(=O)CN2C(=O)CSc3ccc(S(=O)(=O)N4CCC(C)CC4)cc32)CC1
→ nt	4.8%	2%&1%	-4%
CCCCCN=C(C)c1c(O)c2ccccc2oc1=O
→ 0	0.1%	-40%	-2%
Cc1cc(NS(=O)(=O)c2ccc(NS(=O)(=O)c3ccc(Br)cc3)cc2)no1
→ nt	2.0%	-3%	4%
CC1(C)CC(NC(=O)COc2ccc([N+](=O)[O-])cc2)CC(C)(C)N1
→ -16	-1.1%	-3%	-15%
N/C(=N\OC(=O)/C=C/c1ccccc1)c1cccnc1
→ 2	-0.3%	-59%	-6%
NC(=O)C(c1ccc(F)cc1)c1ccc(C(=O)c2ccccc2)cc1 (configuration not stated)
→ nt	0.7%	12%	9%
CC(C)(C)c1nc(N)nc(=O)[nH]1
→ 3	-0.2%	-11%	0%
CC(Oc1ccc2c(-c3ccccc3)cc(=O)oc2c1)C(=O)NC(Cc1c[nH]c2ccc(O)cc12)C(=O)O (configuration not stated)
→ nt	-0.6%	-5%	-9%
Cc1cc(C(=O)CN2C(=O)c3ccccc3C2=O)c(C)n1C1CC1
→ -7	-1.1%	-14%	-1%
Cc1cccc(NC(=O)c2cccc(S(=O)(=O)N3CCc4ccccc4C3)c2)n1
→ nt	0.4%	nt	21%
CC(=O)Nc1ccc(SCC(=O)OCC(=O)NC(=O)NCCC(C)C)cc1
→ 2	1.9%	1%	-21%
Cc1nc2c(-c3ccc(F)cc3)c(C)nn2c(C)c1CCC(=O)N1CCOCC1
→ -13	0.3%	-5%	-3%
CSc1ccccc1NC(=O)CSCc1ccc(Br)cc1
→ 0	-3.5%	-8%	1%
CCOC(=O)c1ncn2c1C(=O)OC2(C)C
→ 0	0.1%	-1%	4%
CC(C)CNC(=O)CCc1nc(-c2ccccc2)no1
→ 1	0.2%	-20%	-3%
CCc1cc2cccc(C)c2nc1SCC(=O)NC1CCCC1
→ nt	-3.7%	2%	5%
CCOc1ccc(/C=N/NC(=O)NC23CC4CC(CC(C4)C2)C3)cc1O
→ nt	-2.7%	2%	22%
COCCCn1c(CCC(=O)O)ccc1-c1ccc(F)cc1
→ ?	?	-10%	-23%
CCOc1ccccc1N=Nc1c(C)[nH]n(-c2ccccc2)c1=O
→ nt	-1.3%	-1%	-8%
Cc1cc(C(=O)CCC(=O)N(C)CC(=O)Nc2ccc(OC(F)(F)F)cc2)c(C)s1
→ nt	-2.7%	nt	7%
Cc1c(NC(=S)N/N=C/c2ccc(Br)cc2)c(=O)n(-c2ccccc2)n1C
→ -3	2.1%	-1%	1%
COc1cc(OC)cc(C(=O)NC2=NCCS2)c1
→ -9	0.0%	-17%	-10%
CSC1=C(C#N)C(c2cccs2)CC(=O)N1C (configuration not stated)
→ 5	nt	-13%	nt

Single records, from the list above:
Results for `CCCCCN=C(C)c1c(O)c2ccccc2oc1=O` → GLA inh pH 4.5 = 0; Rango-impB inh = 0.1%; miR-21 FLuc = -40%; Rango dissoc inh = -2%
Results for `CN(C)c1nc(-c2ccccc2)cc(C(F)(F)F)c1C#N` → GLA inh pH 4.5 = -14; Rango-impB inh = ?; miR-21 FLuc = -4%; Rango dissoc inh = ?
